# TRHR ag: TRH receptor (human) agonism; P34981; TRHR cells, calcium flux fluo-8, FDSS agonist mode; activation, % at 2 µM; 0.18% of 360,000 active; AID 493084; in the data active = activation above about 30%; note: 0% is about no effect
# Target sequence (P34981 whole entry, looked up): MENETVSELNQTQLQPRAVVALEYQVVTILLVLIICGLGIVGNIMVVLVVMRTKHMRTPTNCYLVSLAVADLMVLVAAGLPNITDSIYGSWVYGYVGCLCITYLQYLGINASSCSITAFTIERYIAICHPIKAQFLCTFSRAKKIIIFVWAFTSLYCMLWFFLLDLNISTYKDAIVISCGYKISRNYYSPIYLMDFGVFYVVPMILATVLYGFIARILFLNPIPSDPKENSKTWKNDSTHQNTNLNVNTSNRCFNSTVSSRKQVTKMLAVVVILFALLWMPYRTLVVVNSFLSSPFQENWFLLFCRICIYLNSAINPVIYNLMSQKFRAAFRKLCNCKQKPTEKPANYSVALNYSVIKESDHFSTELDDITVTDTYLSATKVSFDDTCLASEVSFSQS
#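 Steps: seed TRHR cells overnight; add fluo-8 no-wash Ca dye, RT 30 min–1.5 h; record 10 s baseline; pin-transfer compounds; monitor fluorescence 1 cycle/s for the agonist window. Calcium increases flag candidate agonists.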
# APEX1 inh: APE1 (human) endonuclease inhibition. P27695. recombinant APE1, TAMRA/BHQ-2 abasic DNA cleavage fluorescence. Potency, µM (top dose mostly 65.8 µM), for inactives: top-dose activity change, negative = inhibition, usual class: inhibitors. 0.35% of 350,000 active;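 note: potency is the fitted concentration of half-maximal effect; plate controls were vehicle for no effect and reference inhibitor for full effect; nearly all actives have a fitted effect of over 55% in size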
#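 Readout is kinetic fluorescence (ex 525, em 598 nm) from cleavage of 50 nM TAMRA/BHQ-2 THF abasic duplex by 0.75 nM APE1, compound added 15 min beforehand at RT.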
# ERG-DNA inh: ERG Ets/DNA interaction inhibition. Potency, µM (series often up to 76.9 µM), without a hit: at the top dose FP activity, negative = inhibition, hits mostly inhibitors. 0.028% of 370,000 active. AID 624246. fluorescence polarization, His-ERG Ets domain / labelled DNA. P11308; active = well fitted inhibition curve with a large enough effect in the polarisation, with a control signal flat; inconclusive = small, poorly fitted or top-dose-only effect, or effect the other way, or a change in a side signal; inactive = no such curve, though single readings can be large or run the other way; the % refers to the polarisation;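 note: polarization taken with two DNA probes labelled with fluorescein and Texas red; potency is the fitted concentration of half-maximal effect; % of control where 0% means no effect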
# Target sequence (P11308 whole entry, looked up, the tested form may be a part): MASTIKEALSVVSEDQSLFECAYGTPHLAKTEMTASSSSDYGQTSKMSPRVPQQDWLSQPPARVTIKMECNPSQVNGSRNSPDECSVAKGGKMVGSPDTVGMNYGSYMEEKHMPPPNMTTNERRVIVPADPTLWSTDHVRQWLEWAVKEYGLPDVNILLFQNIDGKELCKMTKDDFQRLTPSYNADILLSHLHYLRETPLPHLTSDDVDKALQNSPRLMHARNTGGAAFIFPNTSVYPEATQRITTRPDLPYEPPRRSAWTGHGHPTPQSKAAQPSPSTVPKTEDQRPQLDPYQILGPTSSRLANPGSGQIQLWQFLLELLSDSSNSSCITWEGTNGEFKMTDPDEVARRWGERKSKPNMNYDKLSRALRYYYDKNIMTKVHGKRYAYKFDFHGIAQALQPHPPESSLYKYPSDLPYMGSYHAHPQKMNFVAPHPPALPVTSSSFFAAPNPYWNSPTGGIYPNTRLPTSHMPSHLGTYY
#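 His-tagged ERG Ets domain (1 uM in the protein solution; 300mM KCl, 50mM Tris-HCl, 1mM EDTA, 1mM DTT, pH 7.5) received compound, then a probe mix of 5 nM fluorescein-DNA and 100nM Texas-615-DNA. Fluorescence polarization was read for both dyes.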
# 12-LOX inh: blocks human arachidonate 12S-lipoxygenase | Potency, µM (series often up to 108 µM), without a hit: top-dose activity change, negative = inhibition, most hits filed as inhibitors | purified 12hLO, xylenol orange hydroperoxide absorbance | P18054 | 1.1% of 580,000 active | AID 1671190; note: potency is the fitted concentration of half-maximal effect; % is set by controls: 0 for no effect and ±100 for the full control effect
#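 Purified human 12hLO (150 nM final) in 25 mM Hepes, 0.01% Triton X-100, pH 7.0 was preincubated 15 min at room temperature with compound. Then 40 uM arachidonic acid was added, 30 min. Hydroperoxide was read by Fe-XO absorbance ratio 573/405 nm.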
# BLM helicase inh: inhibitors of human Bloom syndrome helicase BLM. P54132. recombinant BLM DNA unwinding, fluorescence dequenching. AID 2528. 0.2% of 350,000 active. Potency, µM (series often up to 56.1 µM), inactives show at the highest dose activity change, negative = inhibition, usual class: inhibitors;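 note: potency is the fitted concentration of half-maximal effect; plate controls were vehicle for no effect and no enzyme for full effect; nearly all actives have a fitted effect of over 35% in size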
# Numbers without * were called inactive; ? = inconclusive; nt = no result given; & = joins results of further samples; ! = repeats disagree; [ ] = dose if it differs, or a comment. Unless noted, calls come from the whole dose curve; as a rule, active = well fitted curve in the direction sought with a large enough effect; inconclusive = small, poorly fitted or top-dose-only effect, or another doubt; inactive = no such curve, though single readings can be large; an effect the other way counts as inactive or inconclusive. This is a subset; rates above refer to the full screens.
(1) CC(C)CN(C[C@H](O)[C@H](Cc1ccccc1)NC(=O)O[C@H]1CCOC1)S(=O)(=O)c1ccc(N)cc1
(2) O=C(CN1C(=O)N/C(=C\c2ccccc2OCc2ccc(C(=O)O)cc2)C1=O)Nc1ccccc1F
(3) CNNCc1ccc(C(=O)NC(C)C)cc1
(4) C1N2CN3CN1CN(C2)C3
(5) O=C(O)C1Cc2c([nH]c3ccccc23)C(c2ccccc2)N1 (centres undefined)
(6) Cc1ccccc1N(C)S(=O)(=O)c1nnc(NC(=O)c2ccco2)s1

assay / compound,1,2,3,4,5,6
TRHR ag,nt,-0.5,nt,nt,nt,0.3&0.1
APEX1 inh,nt,-24%,-3%[21 µM],-1%,-9%[12.4 µM],1%
ERG-DNA inh,nt,21%,-1%,-2%,nt,-1%&-2%
12-LOX inh,-13%[57.4 µM],1%,12µM*!,10%,nt,2%&-24%
BLM helicase inh,nt,-23%,-2%[21.4 µM],2%,-1%[12.4 µM],-12%&-3%

(7) COc1ccc(C(=O)/C=C/c2cccc(OCc3ccccc3)c2)cc1CSCC(=O)O
(8) CC(=O)NC[C@H]1CN(c2ccc(N3CCOCC3)c(F)c2)C(=O)O1
(9) COc1ccc(NC(=O)CSc2nc(NS(=O)(=O)c3ccccc3)cc(=O)[nH]2)cc1
(10) CSc1ccc(/C=C(\C(=O)O)c2ccc(S(=O)(=O)N3CCCC3)s2)cc1
(11) C=CCNc1nc(C(=O)OCC(=O)c2cccc(Br)c2)cs1
(12) CC[C@H](C)[C@@H]1O[C@]2(CC[C@@H]1C)C[C@H]1C[C@H](CC=C(C)[C@@H](O[C@@H]3C[C@H](OC)[C@H](O[C@@H]4C[C@H](OC)[C@H](O)[C@H](C)O4)[C@H](C)O3)[C@@H](C)C=CC=C3CO[C@@H]4[C@@H](O)C(C)=C[C@@H](C(=O)O1)[C@]34O)O2

assay / compound,7,8,9,10,11,12
TRHR ag,-0.1,0.4,0.4,0.4,0.1,nt
APEX1 inh,-10%,-3%,?,-44%,-17%,1%[21 µM]
ERG-DNA inh,-19%,nt,-2%,9%,nt,nt
12-LOX inh,0%,-17%[57.4 µM],?,147%[activator],0%,nt
BLM helicase inh,-17%,-7%,?,nt,nt,-13%[21.4 µM]

# Quoted from the listing:
# APEX1 inh result of `CSc1ccc(/C=C(\C(=O)O)c2ccc(S(=O)(=O)N3CCCC3)s2)cc1` is entered as -44%
# BLM helicase inh result of `COc1ccc(C(=O)/C=C/c2cccc(OCc3ccccc3)c2)cc1CSCC(=O)O` is entered as -17%
# BLM helicase inh result of `CC[C@H](C)[C@@H]1O[C@]2(CC[C@@H]1C)C[C@H]1C[C@H](CC=C(C)[C@@H](O[C@@H]3C[C@H](OC)[C@H](O[C@@H]4C[C@H](OC)[C@H](O)[C@H](C)O4)[C@H](C)O3)[C@@H](C)C=CC=C3CO[C@@H]4[C@@H](O)C(C)=C[C@@H](C(=O)O1)[C@]34O)O2` is entered as -13%[21.4 µM]
# APEX1 inh result of `CC(=O)NC[C@H]1CN(c2ccc(N3CCOCC3)c(F)c2)C(=O)O1` is entered as -3%

# Additional records:
(13) C=CCn1c(SCC(=O)NCc2ccco2)nnc1-c1ccc2ccccc2n1
(14) CC(C)NC[C@@H](O)c1ccc(O)c(O)c1
(15) COc1cc(OC)c(NC(=O)c2ccc3c(SCC(=O)O)c4c(nc3c2)CCCC4)cc1Cl
(16) CCOC(=O)c1ccc(NC(=O)CSc2nc(C)cc(=O)[nH]2)cc1
(17) N#Cc1c(SCC(=O)Nc2cccc(F)c2)sc2c(O)cc(=O)[nH]c12
(18) NS(=O)(=O)c1ccc(NC(=O)CN2CCN(c3ccc(F)cc3)CC2)cc1

assay / compound,13,14,15,16,17,18
TRHR ag,0.0,0.4,0.0,0.2,0.2,0.7
APEX1 inh,?,?,-7%,-12%,28%,nt
ERG-DNA inh,nt,-1%,13%,2%,-13%,-5%
12-LOX inh,-26%,?,-19%,nt,?,3%
BLM helicase inh,-10%,?,-24%,-20%,-6%,-1%

(19) COC(=O)c1c(SCC(=O)NC2CCCCC2)[nH]c2ccccc2c1=O
(20) Cc1noc(C)c1CSCC(=O)Nc1nc2c(F)cc(F)cc2s1
(21) Cc1ccc(Cl)cc1NC(=O)CSc1sc2c(O)cc(=O)[nH]c2c1C#N
(22) COc1ccc(NC(=O)c2c3c(nc4ccccc24)CCC3)cc1S(=O)(=O)N1CCOCC1
(23) O=C(O)c1cc(S(=O)(=O)O)ccc1O
(24) CO[C@H]1C=CO[C@@]2(C)Oc3c(C)c(O)c4c(O)c(c5c(c4c3C2=O)NC2(CCN(CC(C)C)CC2)N=5)=NC(=O)C(C)=CC=C[C@H](C)[C@H](O)[C@@H](C)[C@@H](O)[C@@H](C)[C@H](OC(C)=O)[C@@H]1C

assay / compound,19,20,21,22,23,24
TRHR ag,2.4,0.5,0.6,-0.1,0.0,-0.8
APEX1 inh,?,-41%,16%[12.4 µM],?,17%,-6%
ERG-DNA inh,107%[activator],nt,9%,-6%,4%,nt
12-LOX inh,?,?,-17%,?,?,nt
BLM helicase inh,1%,nt,-6%,?,2%,-7%

(25) CN=C(NC#N)NCCSCc1csc(N=C(N)N)n1
(26) COc1cc(S(=O)(=O)Nc2c(C)cc(C)cc2C)ccc1Cl
(27) CC(C)NCC(O)COc1ccc(CC(N)=O)cc1 (centres undefined)
(28) CCOc1ccccc1NC(=O)Cc1cccs1
(29) O=C(/C=C/c1ccc(O)c(O)c1)OC(Cc1ccc(O)c(O)c1)C(=O)O (centres undefined)
(30) COCc1c(N)c(C)nc(Cl)c1C#N

assay / compound,25,26,27,28,29,30
TRHR ag,nt,0.0,-0.1,0.2,-0.5,-0.4
APEX1 inh,5%&-12%,-2%,-2%&-2%&4%&-3%,?,1.3µM*!,-4%
ERG-DNA inh,nt,0%,11%,-4%,-10%,1%
12-LOX inh,24%,-3%,5%&1%,?,?,?
BLM helicase inh,-9%&-3%,-5%,-3%&6%,-26%,-2%&-3%&4%,-18%

# Some entries already given, reduced to 12-LOX inh:
no. | Structure | 12-LOX inh
30 | COCc1c(N)c(C)nc(Cl)c1C#N | ?
25 | CN=C(NC#N)NCCSCc1csc(N=C(N)N)n1 | 24%

# (further entries)
(31) Cc1cccc(C)c1OC[C@H](C)N
(32) CC(CS(=O)(=O)c1ccc2c(c1)NC(=O)CS2)C(=O)N1CCN(c2cccc(Cl)c2)CC1 (centres undefined)
(33) COc1ccc(NC(=O)c2noc3c2CCC3)cc1
(34) CC(C)NC[C@H](O)COc1ccc(CC(N)=O)cc1
(35) CCCCNC(=O)COC(=O)c1c2c(nc3ccccc13)CCC2
(36) CCN(CC)CC#CCOC(=O)C(O)(c1ccccc1)C1CCCCC1 (centres undefined)

assay / compound,31,32,33,34,35,36
TRHR ag,nt,-0.8,-0.2,0.5,-2.4,-1.1
APEX1 inh,0%[21 µM],-9%,20µM*,-6%,-20%,-1%
ERG-DNA inh,nt,7%,-19%,-9%,4%,-4%
12-LOX inh,nt,-9%,0%,31%&12%&17%[activator],?,?
BLM helicase inh,-9%[21.4 µM],-8%,-20%,-7%,?,-7%

# In the list so far, 8 have an aryl thioether with sulfur outside any ring.
(9) COc1ccc(NC(=O)CSc2nc(NS(=O)(=O)c3ccccc3)cc(=O)[nH]2)cc1
(10) CSc1ccc(/C=C(\C(=O)O)c2ccc(S(=O)(=O)N3CCCC3)s2)cc1
(13) C=CCn1c(SCC(=O)NCc2ccco2)nnc1-c1ccc2ccccc2n1
(15) COc1cc(OC)c(NC(=O)c2ccc3c(SCC(=O)O)c4c(nc3c2)CCCC4)cc1Cl
(16) CCOC(=O)c1ccc(NC(=O)CSc2nc(C)cc(=O)[nH]2)cc1
(17) N#Cc1c(SCC(=O)Nc2cccc(F)c2)sc2c(O)cc(=O)[nH]c12
(19) COC(=O)c1c(SCC(=O)NC2CCCCC2)[nH]c2ccccc2c1=O
(21) Cc1ccc(Cl)cc1NC(=O)CSc1sc2c(O)cc(=O)[nH]c2c1C#N

assay / compound,9,10,13,15,16,17,19,21
TRHR ag,0.4,0.4,0.0,0.0,0.2,0.2,2.4,0.6
APEX1 inh,?,-44%,?,-7%,-12%,28%,?,16%[12.4 µM]
ERG-DNA inh,-2%,9%,nt,13%,2%,-13%,107%[activator],9%
12-LOX inh,?,147%[activator],-26%,-19%,nt,?,?,-17%
BLM helicase inh,?,nt,-10%,-24%,-20%,-6%,1%,-6%

# Bioassay records deposited in PubChem BioAssay by National Center for Advancing Translational Sciences (NCATS).
